# Screens from PubChem.
# Autofluor counter: compound fluorescence in toxin protease inhibitor counterscreen. fluorescence intensity (concentration not given with the values). 360,000 compounds, 3.1% hits. AID 624483. compound autofluorescence counterscreen, microsphere flow cytometry; hits give high values;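 active = at least 3 SD above the mean of all compounds, about 16000 in these data; inconclusive = too few beads counted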;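 note: 100 nL of 1 mM stock went into each well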
# Sa ugtP lethal: growth inhibition of ugtP-null S. aureus, primary screen, RN4220 ugtP deletion, OD600. 16 h; some inactives read as strong as hits. growth inhibition, % (test concentration not listed). 330,000 compounds, 0.54% hits. AID 1259309, 2017;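 active = z-score under -3 and OD600 up to 0.15 on both plates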;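 note: plate controls were untreated wells for no effect and antibiotic for full effect; wells of about 80 µL received 100 nL stock; the first replicate is given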
# RN4220 kill: growth inhibition of S. aureus RN4220, primary screen, OD600; 16 h; inhibition, % (concentration not given with the values); 330,000 compounds, 0.33% hits; AID 1259311, 2017;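 active = z-score of -3 or lower and OD600 up to 0.18 on both plates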;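 note: plate controls were untreated cells for no effect and reference antibiotic for full effect; stock transfer was 100 nL into about 80 µL; one replicate is shown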
# PrP UTR inh: inhibition of PrP 5' UTR reporter expression. cell-based PrP 5' UTR mRNA reporter, plate reader. inhibition, % (no concentration beside the values). 340,000 compounds, 0.35% hits. AID 488862, 2010;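 active = every replicate at 50% or more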;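 note: 0 = median of the neutral control wells; tested in H4 reporter cells; numbers are from one replicate; inactives centre near -14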
# BJeLR viability: MLPCN primary cell-based screen for lethality selective to Ras in HRASV12 cells; inhibition, % (no concentration beside the values); AID 1554, 2009; BJeLR (HRASV12) viability, CellTiter-Glo ATP luminescence, 48 h; reference of the scale not given here; 300,000 compounds, 0.17% hits;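 active = replicate mean above 50%; inconclusive = above 50% but judged a plate artefact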;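 note: 50 nL library stock added to about 25 µL; numbers are from one replicate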
# Mtb hypoxia rep: PubChem AID 1159583; M. tuberculosis hypoxia-regulated fluorescent reporter, fluorescence; fluorescence inhibition, % (concentration not given with the values); 300,000 compounds, 0.1% hits;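 active = 35 to 45% if threefold the growth effect, above 45% if 1.5-fold the growth effect; inactive = the rest, general growth blockers included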;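 note: wells of about 50 µL received 100 nL stock; 0% = vehicle wells and 100% = reference inhibitor wells; whole bacteria with a GFP reporter of the hypoxia response; strong numbers were not always called active; many hits fall short of the cut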
# Mtb hypoxia rep growth: recorded beside Mtb hypoxia rep, whose call it bears; growth inhibition, %; measured here: M. tuberculosis growth (absorbance);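 0% = vehicle and 100% = reference antibiotic; read after six days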
# Numbers without * were called inactive; ? = inconclusive; / = not tested or not shown. No enrichment for hits, and some 4% of all compounds hit somewhere here.
SMILES,Autofluor counter,Sa ugtP lethal,RN4220 kill,PrP UTR inh,BJeLR viability,Mtb hypoxia rep,Mtb hypoxia rep growth
CCOC(=O)CSCC(=O)N1N=C(c2cccs2)CC1c1ccc(F)cc1 (configuration not stated),2221,-4,1.2,-21,0,8,7
O=C(c1ccccn1)c1ncc(C(F)(F)F)cc1Cl,11373,1,6.4,-31,4,0,-4
CCC1(c2ccccc2)C(=O)N(C)C(=O)N(C)C1=O,9835,-4,4.0,-12,-1,10,2
Fc1ccc(N2CCN(C(c3cccs3)c3nnnn3CCc3ccccc3)CC2)cc1 (configuration not stated),4876,0,6.1,-9,-2,3,7
Clc1ccc(OCc2nn3c(C4CCCCC4)nnc3s2)c(Cl)c1,22251*,-13,7.4,-11,/,2,9
O=C1CSC2=NCN(c3ccccc3)CN12,2942,-5,-1.6,-2,-5,0,2
CC(=O)Nc1nc(N(C)C)nc(N(C)C)n1,2475,-2,7.4,-10,0,15,3
Cc1ccc(S(=O)(=O)NN=C2CCCCC2C2CCCCC2)cc1[N+](=O)[O-] (configuration not stated),/,-7,-1.4,/,/,4,4
Fc1ccc(C2CC(c3cccs3)=NN2C(=S)Nc2ccccc2)cc1 (configuration not stated),2117,-1,-1.8,-1,-3,0,6
COc1cc(C(=S)N2CCOCC2)cc(Br)c1OS(=O)(=O)c1ccccc1,4121,1,11,-26,8,-9,0
COc1ccccc1C(CNC(=O)c1cccc(S(=O)(=O)Nc2ccc(C)cc2)c1)N1CCCC1 (configuration not stated),8609,5,-2.4,-5,-8,-5,0
Cn1c(=O)n(C)c2cc(C(=O)Nc3ccc4c(c3)OCO4)ccc21,2346,-6,-13,-22,15,19,8
CCNC(=S)N1CCN(CC)CC1,3209,8,3.2,-16,1,-7,-4
Cc1ccc(C(=O)N/N=C/c2cn(Cc3ccccc3)c3ccccc23)cn1,7610,/,/,5,-3,/,/
Nc1ccc(C#Cc2ccccc2)cc1,20219*,1,11,0,10,2,0
N=c1sccn1CC(=O)N1CCc2ccccc21,3930,0,-2.7,-9,14,13,-1
Cc1c(CCOC(=O)CC23CC4CC(CC(C4)C2)C3)sc[n+]1CC(=O)c1ccc(Br)cc1,4486,/,/,-6,-2,/,/
O=C(NCCN1CCOCC1)c1ccc(Cl)c(S(=O)(=O)N2CCCCC2)c1,6155,4,2.3,-8,0,0,-4
COc1ccc(NC(=O)c2ccc(NCCN3C(=O)CCC3=O)c([N+](=O)[O-])c2)cc1,4716,3,6.3,4,1,11,5
Cn1c(Cn2c(=O)sc3ccccc32)nnc1SCc1ccccc1,5526,15,6.7,-35,-7,/,/
O=C(O)CCNC(=O)c1ccc(NC(=O)Cc2ccc(Cl)cc2)cc1,4929,4,5.8,-8,6,2,5
Cc1ccc(-c2cc(NC(=O)c3ccccc3[N+](=O)[O-])n[nH]2)cc1,3928,0,0.9,-15,2,-3,0
CCCc1cc(C(=O)OC)c2ccccc2n1,2095,3,4.0,2,-41,0,-4
Cc1ccc(S(=O)(=O)N2CCC(C(=O)NC3CCCCC3C)CC2)cc1 (configuration not stated),6001,7,-4.4,-41,5,7,-3
Cc1occc1C(=O)N/N=C/c1ccc(-c2ccccc2)cc1,4593,/,/,-57,62*,/,/

# Record cards (already shown). Order of values: Autofluor counter, Sa ugtP lethal, RN4220 kill, PrP UTR inh, BJeLR viability, Mtb hypoxia rep, Mtb hypoxia rep growth
# O=C1CSC2=NCN(c3ccccc3)CN12 reads 2942, -5, -1.6, -2, -5, 0, 2
# O=C(c1ccccn1)c1ncc(C(F)(F)F)cc1Cl reads 11373, 1, 6.4, -31, 4, 0, -4
# Fc1ccc(N2CCN(C(c3cccs3)c3nnnn3CCc3ccccc3)CC2)cc1 (configuration not stated) reads 4876, 0, 6.1, -9, -2, 3, 7
# CC(=O)Nc1nc(N(C)C)nc(N(C)C)n1 reads 2475, -2, 7.4, -10, 0, 15, 3
# CCOC(=O)CSCC(=O)N1N=C(c2cccs2)CC1c1ccc(F)cc1 (configuration not stated) reads 2221, -4, 1.2, -21, 0, 8, 7

# (listing goes on)
SMILES,Autofluor counter,Sa ugtP lethal,RN4220 kill,PrP UTR inh,BJeLR viability,Mtb hypoxia rep,Mtb hypoxia rep growth
Clc1nnc(N/N=C/c2ccccc2)c2ccccc12,16810*,/,/,-127,5,/,/
CCn1c(CSc2ncccn2)nnc1SCC(=O)N1CCc2ccccc21,11169,1,2.1,-13,-6,5,10
O=c1cc(N2CCCC2)c(-c2ccccc2)n[nH]1,4178,1,3.5,-4,7,1,-2
CC/C(CC(c1ccccc1)c1c(O)c2ccccc2oc1=O)=N\NC(N)=S (configuration not stated),2451,/,/,-18,11,/,/
CNc1ccc(Br)cc1C(O)c1ccccc1 (configuration not stated),5025,0,0.5,-15,2,-10,5
O=C(Nc1ccc(N2CCOCC2)cc1)NC1CCCCC1,6498,15,7.2,-65,9,14,4
COc1ccccc1COC(=O)c1ccc(S(=O)(=O)N2CCOCC2)cc1,?,14,1.4,-5,/,-9,-1
COc1cc(/C=C2/C(=N)N3C(=NC2=O)SN=C3S(=O)(=O)C(C)C)ccc1OC(=O)c1ccco1,/,12,9.0,-11,-9,-12,-12
Cn1c(SCC(=O)N2CCN(c3ccccc3)CC2)nnc1-c1cc2ccccc2o1,16756*,-12,3.4,-18,2,3,-1
O=C(Cc1ccc(-n2c(=O)[nH]c3ccccc3c2=O)cc1)N1CCN(c2ccccc2)CC1,7958,4,-0.3,-24,-5,9,14
CCN1CCN(CCCNC(=O)c2ccc3c(c2)N(Cc2ccccc2)CCS3)CC1,5843,3,1.2,-3,4,12,4
CN(C(=O)c1cccnc1)c1nnc(-c2cccnc2)s1,4532,1,3.2,-68,-2,17,5
O=C(Nc1ccc2c(c1)CCC2)c1cc(S(=O)(=O)Nc2ccc(F)cc2)c(Cl)cc1Cl,11291,-13,-15,-18,-9,4,5
COc1ccc(CN2C(=O)c3ccccc3C2C(=O)NC2CCC(C)CC2)c(OC)c1 (configuration not stated),3780,3,2.4,-6,11,11,2
O=c1[nH]ncc(N2CCN(Cc3ccccc3)CC2)c1Cl,4664,14,4.2,-19,-1,1,2
Cc1ccsc1-c1nc(CN(C)C(C2CC2)C2CC2)c(C)o1,3559,10,6.6,-18,0,5,4
COc1cc(-c2nnc(Cn3cc(C(F)(F)F)ccc3=O)o2)cc(OC)c1OC,6247,0,1.2,10,-6,5,9
C=CCCN(C(C)C(=O)OC)S(=O)(=O)c1ccccc1Br (configuration not stated),/,4,11,/,/,23,9
Cc1ccc(Cl)cc1NC(=O)c1ccc(CSc2nnnn2C)cc1,2577,3,-2.6,-18,6,4,11
Cc1cccc(C(=O)N[C@H](C(=O)Nc2cccc(S(=O)(=O)N3CCCC3)c2)C(C)C)c1,4880,6,1.7,-18,3,8,-5
O=C(O)C1C2C=CC3(CN(CC(O)COc4ccccc4)C(=O)C13)O2 (configuration not stated),3376,7,6.1,-18,-4,4,12
CCC(=O)N1c2ccc(S(=O)(=O)CCC(=O)Nc3nccs3)cc2CC1C (configuration not stated),4502,1,2.6,-3,2,/,/
O=C(O)COc1ccccc1C=NNC(=O)c1cccc(S(=O)(=O)N2CCOCC2)c1,/,3,4.4,/,/,2,5
Cc1ccc(NC(=O)CSc2nc3c(cc2C#N)C(=O)CCC3)cc1S(=O)(=O)N(C)C,10459,/,/,-7,20,/,/
COc1cc(OC)cc(C(=O)NCCCCc2ccccc2)c1,5460,9,-1.6,-21,1,4,7

# The list goes on:
SMILES,Autofluor counter,Sa ugtP lethal,RN4220 kill,PrP UTR inh,BJeLR viability,Mtb hypoxia rep,Mtb hypoxia rep growth
Cn1nnnc1CCOCCc1nnnn1C,4456,-8,3.6,-19,-4,/,/
O=C(/C=C/NNC(=O)c1ccccc1)c1ccccc1,?,-6,-14,-17,-1,13,5
O=C(c1csc2c1CCCC2)N1CCN(c2cccc(C(F)(F)F)c2)CC1,9492,7,5.8,-8,-5,19,10
CC1CN(C(=O)COC(=O)c2ccc3ncsc3c2)CC(C)O1 (configuration not stated),2908,1,1.3,-14,/,0,0
CCCCn1c(=N)n(CC(=O)c2ccco2)c2ccccc21,5655,-1,2.2,-19,-1,12,16
CC(=O)C1CCC2C3CC(C)C4=CC(=O)CCC4(C)C3C(=O)CC12C (configuration not stated),3671,5,6.9,-25,/,1,7
CS(=O)(=O)Cc1ccc(C(=O)NCC2(N3CCCCC3)CCCCC2)cc1,5600,3,3.2,-2,-6,-1,11
COCCn1c(-c2ccccc2)csc1=Nc1cccnc1,3453,3,4.6,-15,5,-2,1
CC1(CCc2ccccc2)NC(=O)N(CC(=O)N2CCCCCC2)C1=O (configuration not stated),?,0,1.5,-14,1,-4,-4
COCCCNC(=O)C1C2C=CC3(CN(Cc4ccc(C)cc4)C(=O)C13)O2 (configuration not stated),23422*,8,4.0,-2,-4,-1,0
N#CCCCSc1nnc(CSc2nc3ccccc3s2)n1-c1ccccc1,2899,-1,2.4,-56,-8,-2,0
CCOC(=O)c1ccc(NC(=O)CSCC(=O)OCC(=O)c2ccccc2)cc1,10094,-3,2.6,-8,0,2,5
Cc1ccc(C)c2[nH]c(=O)c(CN(CC3CCCO3)S(=O)(=O)c3ccc4c(c3)OCCO4)cc12 (configuration not stated),11151,2,1.9,/,5,5,5
CC(OC(=O)CNC(=O)c1ccc(Cl)cc1)C(=O)NC1CCCCC1C (configuration not stated),4290,8,5.8,-8,-7,2,-6
CC1CN(c2ccc(Cl)cc2)c2nc3c(c(=O)[nH]c(=O)n3C)n2C1 (configuration not stated),3130,16,6.6,0,-7,10,1
COc1ccc([C@H]2C(C(=O)O)=C[C@@H](CC3CCCC3)N2S(=O)(=O)c2ccc(C)cc2)cc1OC,3802,2,5.4,-11,/,-6,0
COc1cccc(NC(=O)c2ccnc(N3CCC(C(=O)NCc4cc(OC)ccc4OC)CC3)c2)c1,5534,2,-0.7,-21,0,0,7
CC(=O)c1ccc(NC(=O)CN(C)CC(=O)Nc2cccc(F)c2)cc1,4046,6,-1.0,-23,-13,1,8
CCOC(=O)N1CCC(Nc2c(NCCN3CCN(Cc4ccccc4)CC3)c(=O)c2=O)CC1,21681*,-2,1.8,12,6,-4,4
COc1ccc(CSC2=CS(=O)(=O)c3ccccc3N2)cc1,3236,8,6.1,-10,4,15,19
COc1ccc2[nH]c(=O)c(CN(C(C)=O)c3cccc(C)c3)cc2c1,4598,-2,3.4,-34,4,7,5
Cc1nc2nc(C)c(CCC(=O)N3CCc4ccccc43)c(C)n2n1,15277,7,1.8,-12,13,2,4
N#Cc1ccc(C(c2nnnn2C2CCCC2)N2CCC(Cc3ccccc3)CC2)cc1 (configuration not stated),4960,-8,-0.3,-1,3,5,18
COc1cccc(CNCCNC(=O)c2ccco2)c1OC,3736,-2,0.7,-25,-6,-8,-8
CCOC(=O)c1cc(-c2ccccc2)nn1-c1ccccn1,11022,-7,6.4,/,-1,-13,1

# Additional structures follow.
SMILES,Autofluor counter,Sa ugtP lethal,RN4220 kill,PrP UTR inh,BJeLR viability,Mtb hypoxia rep,Mtb hypoxia rep growth
CCCc1nc2oc3c(NCCN4CCOCC4)ncnc3c2c2c1CCCC2,3833,-1,-0.2,-8,-14,4,8
CCC(CO)Oc1cc(NCc2ccc(C(F)(F)F)cc2)c2ncn(C(C)C)c2c1 (configuration not stated),3567,7,3.7,-14,/,11,16
O=C(O)c1cc(-n2[nH]c(=O)c3ccccc3c2=O)ccc1Cl,5333,7,4.0,3,-1,9,7
Cc1cc(C)cc(NC(=O)CSc2ccccc2)c1,3615,3,6.5,-11,-3,18,2
CC(C)(C)c1ccc(OCC(=O)O)cc1,4121,3,8.6,-11,-3,12,3
Cc1cc(C)c[n+](-c2nc([O-])sc2C=O)c1,4696,9,0.1,-17,0,/,/
N#Cc1ccccc1COC(=O)CCC(=O)c1cccs1,4000,5,4.3,-20,/,-1,-3
c1ccc(OCCOCCSc2ncccn2)cc1,3380,/,/,-22,5,/,/
CCn1c(SCC(=O)OC(C)C)nnc1-c1cccc(Cl)c1,10052,10,1.5,-46,3,10,3
COc1ccc(NC(=O)CC2SC(=NCC3CCCO3)NC2=O)c([N+](=O)[O-])c1 (configuration not stated),4527,-2,-1.5,-21,-14,-8,-14
N#Cc1ccc(OCC(=O)NCCc2ccccn2)cc1,4089,-8,4.6,10,5,/,/
